HTT prom inh: Primary qHTS for Identification of Small Molecule Inhibitors of Huntingtin Promoter Activity | AID 1508623, 2021 | hit rate 0.93% among 48,000 | HEK293 HTT promoter firefly luciferase reporter (activity 0% = vehicle and -100% = no light), 24 h | Potency, µM (doses to about 57.5 µM), without a hit: at the top dose activity change, negative = inhibition, most hits filed as inhibitors; active means well fitted inhibition curve with a large enough effect; inconclusive means small, poorly fitted or top-dose-only effect; inactive means no such curve, though single readings can be large or run the other way; further: nearly all actives have a fitted effect of over 50% in size
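Luminescence was read after Dual-Glo reagent and a 10 min room-temperature incubation. Values were normalized to vehicle (0% activity) and zero RLU (-100% activity). Reporter HEK293 cells had been exposed to compounds (up to 57.5 uM final) for 24 h.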
PMP22 txn: Cell-based coincidence reporter assay to measure PMP22 gene transcription in S16 Pmp22-F2sN cells - Primary screen; S16 Pmp22-F2sN Schwann cells (luciferase reporters placed in the Pmp22 gene), FLuc/NLuc coincidence luminescence, 24 h; Potency, µM (doses to about 57.5 µM), inactives show at the top dose activity change, negative = inhibition, most hits filed as inhibitors; hit rate 2% among 43,000; active = clear falling dose curves in both reporters; inconclusive = both reporters move, but less clearly or upward; inactive = either reporter flat; the % is the NLuc reporter signal; further: on the % scale 0 is the no-effect control and ±100 the full control effect; some results filed as inactive show a strong effect at the top dose
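S16(c9) Schwann cells with FLuc/NLuc coincidence reporter in the Pmp22 3' UTR; compounds pin-transferred, 24 h at 37C. Dual-luciferase read: FLuc first, then NLuc after Stop&Glo, each 10 min at room temperature.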
* marks the source's active call; other numbers are inactive results; ? = inconclusive; nt = no result given; [ ] = another dose, or the depositor's remark. Potency means the concentration at half of the fitted maximal effect.

compound,HTT prom inh,PMP22 txn
COc1ccc(-c2nc(-c3cc4cc(Br)ccc4oc3=O)cs2)cc1,-1.8%,?
Cc1ccc(-n2cnc3cc(C(=O)NC4CCCCCC4)ccc32)c(C)c1,-29.5%,-2.4%
Cc1cc(C)c(NC(=O)Cn2c(=O)n(Cc3ccc(C(=O)NCc4ccco4)cc3)c(=O)c3sccc32)c(C)c1,?,?
O=C(CCCn1c(=O)c2ccccc2n(Cc2cccc(F)c2)c1=O)NCc1ccccc1Cl,0.5%,?
O=C(NCc1ccco1)c1ccc(Cn2c(SCc3ccccc3F)nc3cccnc32)cc1,-24.1%,-16.6%
O=C(Nc1cccc(C(=O)OCc2cc(=O)n3nc(C4CC4)sc3n2)c1)c1cccc(Cl)c1,-13.1%,?
CCOc1ccccc1NC(=O)CSc1nccn1-c1cccc(C)c1,?,?
Cc1ccc(C(=O)Nc2ccc(-n3c(C)nc4ccccc4c3=O)cc2)cc1[N+](=O)[O-],?,?
Nc1c(C(=O)Nc2ccc(OC(F)(F)F)cc2)nnn1Cc1ccccc1,9.5%,-5.7%
C[C@]12CCC(=O)C=C1C=C[C@@H]1[C@@H]2CC[C@@]2(C)[C@H]1CC[C@@]21CCC(=O)O1,-24.8%,nt
COc1cc2c(=O)n(Cc3ccccc3)c(=O)n(CC(=O)Nc3cc(C(F)(F)F)ccc3Cl)c2cc1OC,-7.3%,3.5%
CC(C)(C)OC(=O)N1CCC(c2c(C(=O)NCCc3ccsc3)cnn2-c2ccc(F)cc2F)CC1,-13.3%,-30.7%
Cc1ccc2c(CC(=O)Nc3ccc(S(=O)(=O)N4CCCCC4)cc3)coc2c1,-27.9%,?
Cc1ccc(-n2ncc3c(N4CCC(Cc5ccccc5)CC4)ncnc32)cc1C,-1.1%,-18.3%
O=C(Nc1ccc(F)c(F)c1)c1ccc(F)c(S(=O)(=O)N2CCC3(CC2)OCCO3)c1,?,?

Continuation.
compound,HTT prom inh,PMP22 txn
COC(=O)c1cc2oc3ccccc3c2n1Cc1ccc(C)cc1,-17.9%,-2.6%
CCCN(Cc1cc2cc(C)ccc2[nH]c1=O)C(=O)c1cccc(Cl)c1,-15.3%,?
COc1cccc(-c2nc3c(c(SCC(=O)Nc4cccc(C)c4C)n2)Cc2c(CO)cnc(C)c2O3)c1,-4.5%,-15.3%
Cn1c(=O)c2c(-c3ccccc3Cl)n(Cc3ccc(Cl)cc3)cc2n(C)c1=O,0.0%,8.5%
Cc1ccc(CNc2ccc(-c3nc(-c4ccco4)no3)cc2[N+](=O)[O-])cc1,-7.0%,1.9%
COCCc1nn2c(=O)cc(COC(=O)c3ccc4c(c3)OCO4)nc2s1,-2.2%,-19.4%
COc1ccc2cc(CNc3ccc(C)cc3)c(=O)n(CC(=O)Nc3cccc(C(F)(F)F)c3)c2c1,-29.0%,-20.3%
COc1ccc(N2CCN(C(=O)c3ccc4c(Cl)c5c(nc4c3)CCCC5)CC2)cc1,-3.8%,?
COc1ccc(S(=O)(=O)NCC(c2ccco2)S(=O)(=O)c2ccc(C)cc2)cc1F (centres undefined),-23.4%,?
Cc1ccc(N(CC(=O)Nc2ccc(Br)c(C)c2)S(=O)(=O)c2cccs2)cc1,-26.0%,-17.6%
CC1CCCN(CCCNC(=O)c2ccc3c(c2)N(Cc2ccccc2F)C(=O)c2ccccc2S3(=O)=O)C1 (centres undefined),-14.7%,?
CCc1ccc(Sc2cc(C(=O)NCCCN3CCC(C)CC3)c3ccccc3n2)cc1,-25.0%,?
Cc1ccc(NC(=O)CSc2nc(C)c(Cc3ccccc3)c(=O)[nH]2)cc1,-29.4%,8.7%
COc1ccc(NC(=O)CN(C)S(=O)(=O)c2ccc3c(c2)CCCN3C(C)=O)cc1Cl,-19.5%,-37.5%
Cc1ccc(-n2c(SCC(=O)O)nc3sc4c(c3c2=O)CCCC4)cc1,-2.5%,6.2%

The results go on:
compound,HTT prom inh,PMP22 txn
Cc1cccc(Cn2c(=O)n(CCc3ccccc3)c(=O)c3c(C)c(C)sc32)c1,-5.4%,-12.3%
Cc1cccc(N2CCN(C(=O)C(C)n3nc(C)n4c(cc5occc54)c3=O)CC2)c1C (centres undefined),-19.9%,?
COc1ccc(N(C(=O)c2ccc(C)cc2)S(=O)(=O)c2ccc(Cl)cc2)cc1,?,-21.4%
Cc1ccc(-c2cnc(C3CC3)o2)cc1S(=O)(=O)Nc1cccc(C)c1C,-3.1%,-28.8%
Cc1ccccc1CSc1nc2cc(C(=O)NC3CCCC3)ccc2c(=O)n1Cc1ccccc1,0.5%,-17.1%
CCCc1cnc2c(c1SCC(=O)Nc1ccc([N+](=O)[O-])cc1)c(=O)n(C)c(=O)n2C,?,?
CCc1nnc(NC(=O)c2nc(SCc3ccc(F)cc3)ncc2Cl)s1,-16.2%,9.0%
O=C(CCS(=O)(=O)c1cc2c(cc1Cl)NC(=O)CO2)NCCc1ccc(Cl)cc1,-6.3%,-34.0%
COc1ccc(-n2ccn3c(CC(C)(C)CC(=O)O)nnc3c2=O)cc1,-12.3%,-0.7%
COC(=O)c1cc2sccc2n1Cc1nc(-c2cccc(Br)c2)oc1C,-14.7%,-17.3%
CCOC(=O)c1cc(C)n(CC2CCC(C(=O)Nc3ccc(C(C)=O)cc3)CC2)c1C (centres undefined),?,-35.2%
Cc1ccc(NC(=O)Cn2nnc(-c3nc(-c4ccncc4)no3)c2N)c(C)c1,0.3%,3.2%
Cc1sc2c(c1C)c(=O)n(Cc1ccccc1)c(=O)n2Cc1ccc(F)cc1,-3.5%,9.7%
CCc1ccc(S(=O)(=O)c2cn(C)c3cc(OC)c(OC)cc3c2=O)cc1,-19.3%,1.1%
COCc1cc(C)nc2sc3c(c12)NC(c1ccc(O)cc1)N(c1ccc(C)cc1)C3=O (centres undefined),-20.1%,?

(listing goes on)
compound,HTT prom inh,PMP22 txn
CC(C)(C)c1ccc(OCC(=O)N2CCC(c3nc4ccccc4s3)CC2)cc1,-12.6%[11.5 µM],-20.8%
COc1ccc(NC(=O)CC(C)S(=O)(=O)c2cc3c(cc2C)NC(=O)CO3)cc1OC (centres undefined),4.9%,-12.5%
COc1cc2c(C(=O)N(C)c3cc(Cl)ccc3OC)cn(CC(C)C)c(=O)c2cc1OC,-28.9%,?
O=C(Nc1ccccc1C(F)(F)F)c1cc(-c2ccc3c(c2)OCCO3)on1,74.6%[activator],1.4%
CCOc1ccccc1CNS(=O)(=O)c1ccc2c(c1)C(C)(C)C(=O)N2C,-29.7%,-29.3%
Cc1ccc(C(=O)NCC(c2cccs2)S(=O)(=O)c2cccs2)cc1C (centres undefined),-15.3%,?
CCc1ccccc1NC(=O)Cn1c(=O)n(Cc2ccco2)c(=O)c2ccccc21,-14.0%,-2.8%
Cc1ccc(OCC(=O)Nc2ccc3nc(SCC(=O)N4CCOCC4)sc3c2)cc1C,-2.8%,?
COc1ccccc1Nc1nn2c(=O)c3ccc(C(=O)NC4CCC(C)CC4)cc3nc2s1 (centres undefined),-4.4%,?
COc1ccc(C2CC(=O)Oc3c2c(=O)n(C)c2ccccc32)c(OC)c1OC (centres undefined),-16.7%,0.1%
Cc1ccccc1CSc1nc(-c2ccccc2)nc2c1Cc1c(CO)cnc(C)c1O2,-15.0%,?
O=C(CCSCCc1ccccn1)Nc1ccc(Cl)cc1,-15.5%,9.7%
COc1ccccc1CNC(=O)C(=O)NCC(c1cccs1)S(=O)(=O)c1ccc(F)cc1 (centres undefined),?,-27.5%
COc1ccc(Cl)cc1NC(=O)c1cc(S(=O)(=O)NC2CCCCCC2)ccc1F,?,?
Cc1oc(-c2ccccc2Cl)nc1CS(=O)CC(=O)N1CCN(c2cccc(C(F)(F)F)c2)CC1 (centres undefined),?,?

(next part)
compound,HTT prom inh,PMP22 txn
CCOc1ccc(NC(=O)CN2C(=O)c3ccccc3Sc3ccc(C(=O)OC)cc32)cc1,-23.1%,6.2%
Cc1ccc(CNC(=O)c2c(O)nc3ccccn3c2=O)cc1,-8.2%,-14.8%
CCCNC(=O)C1CCC(Cn2c(=O)c3sccc3n(CC(=O)N(CC)CC)c2=O)CC1 (centres undefined),2.5%,0.6%
CCOC(=O)c1cc2c(=O)n3ccccc3nc2n(CC2CCCO2)c1=NC(=O)c1ccc(C)cc1 (centres undefined),-18.7%,?
CCS(=O)(=O)c1ccccc1C(=O)N1CCN(c2nc3ccccc3s2)CC1,14.1µM*,?
CCc1ccc(N2C(=O)CS(=O)(=O)C23C(=O)N(Cc2ccccc2F)c2ccccc23)cc1 (centres undefined),?,-10.1%
CC1=C(C(=O)Nc2ccccc2)C(c2ccccc2Cl)n2ncc(C(=O)Nc3cccc(C)c3)c2N1 (centres undefined),-14.8%,15.5%
CCn1c(=O)c2sccc2n2c(CCCC(=O)N3CCN(c4cccc(Cl)c4)CC3)nnc12,-25.9%,3.6%
CCCN1CCN(CCCNC(=O)c2cc3c(=O)n(CC)c4ccccc4c3s2)CC1,12.4%,?
CN(C)S(=O)(=O)c1ccc2c(c1)N(CC(=O)NCc1ccc(F)cc1)C(=O)CS2,-1.7%,10.0%
COc1cc(CN(C(=O)COc2ccc(C)cc2)c2ccccn2)cc(OC)c1OC,?,?
CCOc1ccc(NC(=O)Cn2c(=O)n(CCCC(=O)NCc3ccc4c(c3)OCO4)c(=O)c3ccccc32)cc1,3.2%,-8.7%
COc1cc(NC(=O)Cn2ncc3c(=O)oc4ccccc4c32)cc(OC)c1OC,1.8%,-6.4%
COC(=O)c1c(NC(=O)COc2ccccc2Cl)sc2c1CCC(C(C)(C)C)C2 (centres undefined),0.7%,2.6%
COc1ccc(Cn2c(C(=O)O)c(CNCc3ccc(SC)cc3)c3ccc(OC)cc32)cc1,?,?

(further entries)
compound,HTT prom inh,PMP22 txn
CCN(c1ncnc2c1c(-c1ccccc1)cn2-c1ccccc1)C1CCCCC1,-4.3%,1.6%
COc1ccc(-c2ccc(NS(=O)(=O)c3cccc(C)c3)cc2)nn1,-26.2%,-3.0%
CCc1ccccc1NC(=O)c1cc(S(=O)(=O)N2CCCC2)cn1C,-3.0%,6.0%
Cc1cccc(NC(=O)Cn2c(C(F)(F)F)nc3ccccc32)c1C,?,?
CC(NC(=O)CN(c1ccc(Cl)cc1Cl)S(=O)(=O)c1ccccc1)c1ccccc1 (centres undefined),?,?
Cn1c(Oc2ccc(Cl)cc2)nc2c1c(=O)n(Cc1ccc(F)cc1)c(=O)n2C,-4.5%,1.4%
CCc1ccc(NC(=O)c2cc(-c3cccs3)on2)cc1,55.2%[activator],-3.3%
Cn1c(=O)n(C)c2cc(N3CCCC3)c(NC(=O)Nc3ccccc3)cc21,10.7%,5.5%
CC(CCc1ccccc1)NC(=O)CSc1n[nH]c(-c2ccccc2Cl)n1 (centres undefined),-12.8%,-19.8%
CCOc1cc(C2C(C(=O)Nc3ccc(OC)cc3)=C(C)Nc3nc(SC)nn32)ccc1O (centres undefined),-31.9%,?
COc1cc(OC)c(NC(=O)CC(C)S(=O)(=O)c2ccc3c(c2)NC(=O)CO3)cc1Cl (centres undefined),7.1%,?
COc1cc(NC(=O)c2noc3c2CSc2ccccc2-3)cc(OC)c1OC,-25.6%,-74.1%
Cc1ccc(-n2ncc(C(=O)NCCCN3CCN(C)CC3)c2C2CCN(C(=O)OC(C)(C)C)CC2)c(C)c1,-7.4%,-34.3%
COc1cc(NC(=O)N(Cc2ccco2)C2CCN(C(C)=O)CC2)cc(OC)c1OC,-0.3%,-19.3%
CC(C)c1ccc(NC(=O)CN2C(=O)c3cccc4cccc2c34)cc1,-1.0%,?

The list continues:
compound,HTT prom inh,PMP22 txn
CCN1CCN(C(=O)Cn2ncc3c4ccccc4n(Cc4ccccc4F)c3c2=O)CC1,-9.6%,-1.2%
Cc1nc(-n2nc(C)c(Cc3ccc4c(c3)OCO4)c2C)sc1C(=O)Nc1ccc(Cl)cc1,-7.7%,?
O=C(CSc1nc2c(c(=O)[nH]1)CN(Cc1ccc3c(c1)OCO3)CC2)Nc1cccc(Cl)c1,-26.8%,6.6%
COc1ccc2c(CNCCc3cccs3)c(C(=O)O)n(Cc3ccccc3)c2c1,-20.6%,-8.2%
Cc1ccc(NC(=O)C2CCCN(S(=O)(=O)c3cccs3)C2)c(C)c1 (centres undefined),-17.7%,17.3%
O=C(c1ccc(F)cc1)N1CCN(CCc2ccncc2)CC1,0.1%,-15.7%
COc1ccc(S(=O)(=O)N(CC(=O)Nc2cccc(C(F)(F)F)c2)c2ccc(C)cc2)cc1,-32.7%,-14.7%

Three of the compounds above, as labelled records.
COc1ccc2c(CNCCc3cccs3)c(C(=O)O)n(Cc3ccccc3)c2c1
  HTT prom inh: -20.6%; PMP22 txn: -8.2%

COc1ccc(S(=O)(=O)N(CC(=O)Nc2cccc(C(F)(F)F)c2)c2ccc(C)cc2)cc1
  HTT prom inh: -32.7%; PMP22 txn: -14.7%

O=C(CSc1nc2c(c(=O)[nH]1)CN(Cc1ccc3c(c1)OCO3)CC2)Nc1cccc(Cl)c1
  HTT prom inh: -26.8%; PMP22 txn: 6.6%
